From PubChem
TRPML1 inh = qHTS for Inhibitors of the Human Mucolipin Transient Receptor Potential 1 (TRPML1); Mucolipin-1 (Homo sapiens), Q9GZU1; TRPML1-inducible cells, Ca2+ dye fluorescence, FDSS; active compounds read low; inhibition of EC80 agonist-evoked calcium signal; activity change, negative = inhibition, % (test concentration not listed); 390,000 tested, 0.02% active; AID 624415, 2012; in the data active means activity change below about -50%; inconclusive means about -30% to -50%; inactive means above about -30%;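 further: stimulus is agonist 54-4 at its EC80 concentration; on the % scale 0 is the no-effect control and ±100 the full control effect; compound concentration not given in the record; the text of the record puts the active cut at -80%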
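Tet-induced TRPML1-DL cells loaded with Ca8 no-wash calcium dye were read kinetically on FDSS. Compound addition was followed by EC80 agonist 54-4 (4 uM final); inhibition was read over 110 s.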
PINK1 expr mod = A Quantitative High throughput Screen to Identify Chemical Modulators of PINK1 Expression; PINK1 immunofluorescence, high-content cytometry, 24 h; 410,000 tested, 0.2% active; Potency, µM (highest dose often 76.6 µM), for the others: at the top dose activation (PINK1 increase), hits mostly activators; active = well fitted activation curve with a large enough effect; inconclusive = small, poorly fitted or top-dose-only effect; inactive = flat fitted curve, though single readings scatter; cell line not stated here;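 further: potency means the concentration at half of the fitted maximal effect; % of control where 0% means no effect; nearly all actives have a fitted effect of over 65% in size; a mitochondrial uncoupler was the plate control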
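Decision-based qHTS: stable cells, 24 h exposure to five compound concentrations, CCCP as control. Fixed cells stained for PINK1 plus nuclear, mitochondrial and cell markers, cytometer read.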
TRPML1 ag = qHTS for Agonists of the Human Mucolipin Transient Receptor Potential 1 (TRPML1). TRPML1-expressing cells, Ca2+ dye fluorescence, FDSS; host cell line not named in the record; reference of the full effect not given here. activation, % (no concentration beside the values). Mucolipin-1 (Homo sapiens), Q9GZU1. 410,000 tested, 0.12% active; in the data active = activation above about 50%; inconclusive = about 30% to 50%; inactive = below about 30%; further: 0% is about no effect; the text of the record puts the active cut at 80%
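Agonist activity was taken from a 110 s kinetic Ca2+ dye read on the FDSS after pinning compounds onto TRPML1-DL cells. The cells were seeded at 1,500/well with Tet inducer, incubated about 16 h, then dye-loaded at room temperature.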
D2 ag = Beta-Arrestin HTS for Positive Allosteric Modulators of the Human D2 Dopamine Receptor: Agonists. AID 624465, 2012. DiscoveRx PathHunter D2 beta-arrestin, luminescence, 90 min; 100% = 57 uM dopamine signal. 360,000 tested, 0.084% active. activation, % (concentration not given with the values); in the data active = activation above about 40%; inconclusive = about 15% to 40%; inactive = below about 15%; further: compound concentration not given in the record; the text of the record calls up to 30% inactive
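DiscoveRx PathHunter D2 beta-arrestin cells (2,100/well) attached overnight, then compound-stimulated 90 min at 37 C in HBSS/10 mM HEPES/0.1% Tween-20 buffer; beta-galactosidase complementation read by luminescence after 1 h at ambient temperature. Dopamine 57 uM final (EC100) as control.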
CtBP-E1A blk = qHTS Assay for Inhibitors of the CtBP/E1A Interaction | 340,000 tested, 0.49% active | activity change, % (concentration not given with the values) | CtBP / adenovirus E1A interaction (AlphaScreen) | AlphaScreen GST-E1A/His-CtBP binding, 1536-well; active compounds read low; control for the full effect not named in the record; in the data active means activity change below about -65%; inconclusive means about -30% to -65%; inactive means above about -30%; further: on the % scale 0 is the no-effect control and ±100 the full control effect
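In 5 uL wells, 23 nL compound meets equimolar GST-E1A and His-CtBP (5X stock 125 nM each) for 2 h, 37 °C. Beads (5X, 50 ug/mL) then 1 h, 37 °C, dark.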
Six1-Eya2 blk = qHTS Assay for Inhibitors of the Six1/Eya2 Interaction | Homeobox protein SIX1 (Homo sapiens) + Protein phosphatase EYA2 (Homo sapiens), … | AlphaScreen GST-Six1/His-Eya2 binding, biochemical; active compounds read low; control for the full effect not named in the record | activity change, % (concentration not given with the values) | 360,000 tested, 0.56% active | AID 651725, 2012; in the data active = activity change below about -65%; inconclusive = about -30% to -65%; inactive = above about -30%; further: on the % scale 0 is the no-effect control and ±100 the full control effect
Target sequence (O00167 whole entry, looked up): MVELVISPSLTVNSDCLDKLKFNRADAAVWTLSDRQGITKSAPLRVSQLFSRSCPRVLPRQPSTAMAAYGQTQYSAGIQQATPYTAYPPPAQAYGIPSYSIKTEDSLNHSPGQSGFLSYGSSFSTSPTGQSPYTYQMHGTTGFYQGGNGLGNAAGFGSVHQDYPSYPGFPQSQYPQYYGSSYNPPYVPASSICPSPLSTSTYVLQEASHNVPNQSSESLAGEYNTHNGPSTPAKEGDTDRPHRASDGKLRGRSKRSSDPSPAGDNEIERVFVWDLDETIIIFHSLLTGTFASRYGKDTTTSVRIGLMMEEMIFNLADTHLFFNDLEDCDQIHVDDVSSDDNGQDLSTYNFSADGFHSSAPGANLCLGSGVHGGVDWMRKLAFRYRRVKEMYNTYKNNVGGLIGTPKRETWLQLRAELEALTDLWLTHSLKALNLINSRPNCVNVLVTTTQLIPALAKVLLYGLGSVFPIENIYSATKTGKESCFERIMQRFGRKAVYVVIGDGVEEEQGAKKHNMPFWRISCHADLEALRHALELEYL
Target sequence (Q15475 whole entry, looked up): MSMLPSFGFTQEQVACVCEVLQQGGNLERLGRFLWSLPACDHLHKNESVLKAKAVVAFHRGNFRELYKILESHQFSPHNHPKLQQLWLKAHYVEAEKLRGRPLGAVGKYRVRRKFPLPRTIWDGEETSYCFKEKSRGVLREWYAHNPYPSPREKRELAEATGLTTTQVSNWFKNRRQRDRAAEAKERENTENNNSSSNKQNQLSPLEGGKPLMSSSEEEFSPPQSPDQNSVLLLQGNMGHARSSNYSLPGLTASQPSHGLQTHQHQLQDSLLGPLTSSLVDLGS
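AlphaScreen with GST-Six1 and His-Eya2 (5X mix: 250 nM and 500 nM), glutathione donor and nickel acceptor beads; buffer 50 mM Tris pH 8.0, 300 mM NaCl, 1 mM TCEP; 1 h at 37 C in the dark.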
* = called active by the depositor; ? = inconclusive; . = no result given; & = joins results of further samples; [ ] = dose if it differs, or a comment. The order is random; 1% or so of the library scored in one or more.

SMILES	TRPML1 inh	PINK1 expr mod	TRPML1 ag	D2 ag	CtBP-E1A blk	Six1-Eya2 blk
COc1ccc(CN(C)C[C@@H]2OCc3cnnn3CCCC(=O)N([C@@H](C)CO)C[C@H]2C)cc1	-9	-1.8%	0.7	-5.1	-2	7
CCCCN(C(=S)NC(=O)c1ccccc1)c1c(N)n(Cc2ccccc2)c(=O)[nH]c1=O	-5	-0.8%	2.9	-7.0	-5	5
CCC(=O)N1CCc2cc(Br)cc(S(=O)(=O)N3CCN(c4cc(C)ccc4C)CC3)c21	23	0.0%	0.7	.	.	.
COc1ccc(NC(=O)CC2C(=O)N(c3cccc(OC)c3)C(=O)N2Cc2ccco2)cc1 (configuration not stated)	-11	3.3%	-0.4	-4.1	4	3
CCCNC(=O)NC(=O)CN1C(=O)NC(C)(c2ccc3ccccc3c2)C1=O (configuration not stated)	11	2.5%	-0.5	-0.5	22	3
Cc1cccnc1	47	-0.2%	-0.7	-1.3	-1	-3
CCOc1ccc(C(=O)NCC(=O)NCCOc2ccc(C)cc2)cc1	-1	0.0%	2.9	-2.9	0	-1
O=S(=O)([O-])CCC[n+]1ccc(Oc2ccccc2)cc1	-11	0.2%	-0.5	-3.5	.	-4
O=C(COc1ccc2ccccc2c1)NC1CC(=O)N(c2ccc(F)cc2)C1 (configuration not stated)	-4	-0.5%	0.1	.	.	.
Cc1cc(C)c2c(n1)SCC(=O)N2CC(=O)Nc1cccc(C)c1C	0	0.7%	-0.9	.	.	.
O=C(Nc1nccs1)c1ccc(S(=O)(=O)NCc2cccs2)cc1	6	.	0.1	-1.9	10	-8
Oc1ccc(-c2nccc(-c3ccc(Br)cc3)n2)cc1	-21	0.2%	2.6	-6.0	.	-3

Record cards (already shown). Order of screens: TRPML1 inh	PINK1 expr mod	TRPML1 ag	D2 ag	CtBP-E1A blk	Six1-Eya2 blk
`O=C(COc1ccc2ccccc2c1)NC1CC(=O)N(c2ccc(F)cc2)C1` (configuration not stated) across the screens: -4	-0.5%	0.1	.	.	.
`CCOc1ccc(C(=O)NCC(=O)NCCOc2ccc(C)cc2)cc1` across the screens: -1	0.0%	2.9	-2.9	0	-1
`CCCCN(C(=S)NC(=O)c1ccccc1)c1c(N)n(Cc2ccccc2)c(=O)[nH]c1=O` across the screens: -5	-0.8%	2.9	-7.0	-5	5

Later entries
SMILES	TRPML1 inh	PINK1 expr mod	TRPML1 ag	D2 ag	CtBP-E1A blk	Six1-Eya2 blk
COc1ccc(S(=O)(=O)N2CCCCCC2)cc1C(=O)NCCc1ccccc1	33	0.5%	1.8	-3.6	-12	0
COc1ccc(-c2cc(C(=O)OCC(=O)c3ccc(C)cc3)c3cccc(Cl)c3n2)cc1	1	1.8%	-0.4	.	.	.
COC(=O)c1c(-c2cccc3ccccc23)csc1NC(=O)Cc1ccc(OC)c(OC)c1	11	8.7%	1.8	-2.1	-18	-22
O=C(NC1CCCCC1)c1ccc(CS(=O)(=O)Cc2ccccc2F)o1	9	1.0%	0.7	-0.7	-1	15
COCCNC(=O)c1nn(-c2ccc(C)cc2)c(=O)n(C)c1=O	8	0.2%	-0.9	.	.	.
O=C1N=NC(=O)N1c1ccccc1	6	0.7%	-0.6	3.6	-3	-4
COc1ccc(NS(=O)(=O)c2ccc3c(c2)CCCN3C(=O)C2CCC2)cc1OC	5	2.2%	-0.6	.	.	.
CC(C(=O)Nc1cccc([N+](=O)[O-])c1)N1CCN(C/C=C/c2ccccc2)CC1 (configuration not stated)	6	-2.1%	0.2	9.3	-26	-16
CN(Cc1ccccc1)C(=O)C1CCN(S(=O)(=O)c2ccc3nc4c(c(C(=O)O)c3c2)CCCC4)CC1	2&6	0.6%&1.3%	0.9&-0.8	4.0	.	?
O=C1NCCN/C1=C\C(=O)c1cccc(Br)c1	2	-1.0%	-0.9	-4.4	.	-1
COc1c2ccoc2nc2c(OC)c(OCC(OC(C)=O)C(C)(C)O)ccc12 (configuration not stated)	17	-0.2%	-0.3	-4.0	-9	-1
CN(C(=O)COC(=O)c1nc(-c2ccccc2)n(-c2ccccc2)n1)C1CCS(=O)(=O)C1 (configuration not stated)	2	1.4%	0.9	-2.0	-15	-1
CCN(C(=S)NC(=O)Cc1ccc(OC)cc1)c1ccccc1	-15	-0.3%	1.1	-3.2	-4	7
CCC(=O)N1CCc2cc(Br)cc(S(=O)(=O)CCC(=O)Nc3cccc(Cl)c3)c21	-9	-0.5%	-0.9	.	.	.
Cc1onc(-c2ccccc2)c1C(=O)OCCOc1ccc([N+](=O)[O-])cc1[N+](=O)[O-]	10	-1.6%	-1.2	-0.6	-9	-18
COc1ccc(NC(=O)/C(=C\c2ccc(OC)c(OC)c2)NC(=O)c2ccco2)cc1	15	0.9%	-0.4	0.3	7	1
COc1ccc(OC)c(NC(=O)Nc2cccc3ccccc23)c1	-2	13%[38.3 µM]	0.6	3.3	-8	0
Nc1[nH]c(N=NC(=O)c2ccc(F)cc2)c2ccccc12	4	3.0%	0.7	-3.3	-23	-2
CCc1c(C)nc2[nH]ncn2c1=O	19	-2.8%	0.4	0.8	-13	8
COc1ccc2cc(C(=O)N(C)Cc3ccccc3)[nH]c2c1	13	0.2%	-0.3	-3.5	1	2
CC(C)(C)c1ccc(CC(=O)N2CCC2(C)C(=O)NS(=O)(=O)c2ccc(F)cc2F)cc1 (configuration not stated)	.	-0.8%	-0.7	-2.5	4	4
CCOc1cc(-c2c(C)c(CC)nc(N)c2C#N)ccc1O	-4	3.9%	1.2	?	-12	-9
OCCN1CCN(c2ncnc3c2ncn3[C@H]2CN(Cc3cccs3)C[C@@H](CO)O2)CC1	.	-0.5%	-0.4	-5.2	-4	2
COc1ccc(-c2cc(C(C)=O)c(C)n2CCC(=O)Nc2ccc(C(F)(F)F)cc2)cc1	25	0.8%	2.1	.	.	.
CCCC(=O)n1nc(-c2ccc(Cl)cc2)nc1SC	-2	5.1%	-1.7	-2.6	9	-4
Cc1cccc(-c2n[nH]c(S(C)(=O)=O)c2C#N)c1	-5	2.2%	-0.8	-3.7	.	2
O=C(CCS(=O)(=O)c1nc(-c2cccs2)cc(C(F)(F)F)n1)Nc1cccc(O)c1	-17	-0.6%	-1.1	.	.	.
O=[N+]([O-])c1ccccc1/C=N/NC1=NCCCCC1	-21	0.5%	-0.3	-1.4	4	9
CCOCCCNC(=O)C(NC(=O)c1ccc2c(c1)OCO2)c1ccc(Cl)cc1 (configuration not stated)	7	-0.3%	-0.1	-4.8	4	3
O=C(c1ccccc1)N(C(=O)c1ccccc1)N1CCCC1	8	-0.3%	0.5	0.6	9	12
CCOC(=O)N1CCC(NC(=O)C2CCN(S(=O)(=O)c3cccs3)CC2)CC1	-20	3.4%[38.3 µM]	0.1	-2.9	0	-1
COc1ccc2c(C)c(CC(=O)NCc3ccccc3Cl)c(=O)oc2c1OC	-3	4.9%	0.0	.	.	.
O=C(Cn1ncc2c3ccccc3n(Cc3ccccc3)c2c1=O)NCc1ccccc1	-3	0.5%	4.0	.	.	.
Cc1ccc(S(=O)(=O)NC(CC(=O)NCC2CCCO2)c2ccco2)cc1 (configuration not stated)	6	1.5%	-0.2	-3.1	3	10
CCOC(=O)c1c(C)n(C)c2ccc(OC(=O)c3ccco3)cc12	1	18%	0.3	-2.8	6	-3
Cc1cc(C)n(-c2ccccc2C#N)n1	12	0.2%	0.2	-2.0	-1	-1

The last 4 entries of the section before open the next one:
SMILES	TRPML1 inh	PINK1 expr mod	TRPML1 ag	D2 ag	CtBP-E1A blk	Six1-Eya2 blk
O=C(Cn1ncc2c3ccccc3n(Cc3ccccc3)c2c1=O)NCc1ccccc1	-3	0.5%	4.0	.	.	.
Cc1ccc(S(=O)(=O)NC(CC(=O)NCC2CCCO2)c2ccco2)cc1 (configuration not stated)	6	1.5%	-0.2	-3.1	3	10
CCOC(=O)c1c(C)n(C)c2ccc(OC(=O)c3ccco3)cc12	1	18%	0.3	-2.8	6	-3
Cc1cc(C)n(-c2ccccc2C#N)n1	12	0.2%	0.2	-2.0	-1	-1
Cc1ccc(C)c(NC(=O)c2cc3c([nH]c4ccccc43)c(C)n2)c1	-10	-0.3%	0.8	-1.1	-2	5
CCOC(=O)c1ccc(NC(=O)CSc2nc(=O)n(CCN3CCOCC3)c3c2CCC3)cc1	4	-1.5%	0.7	1.4	0	-9
Cn1c(=NC(=O)COc2ccccc2)sc2ccccc21	1	1.3%	2.5	-4.0	.	3
O=c1c2ccccc2nnn1COc1ccc(Cl)cc1Br	-12	0.7%	0.1	-4.5	1	5
NNC(=O)CNC(c1ccccc1)c1cc(Cl)ccc1NC(=O)c1ccccc1 (configuration not stated)	5	0.5%	0.2	-2.0	-3	-2
Cc1ccc(-c2cccc(C(=O)NCc3ccccc3)n2)c2ccccc12	58	12%	1.1	1.0	.	-12
Cc1ccccc1Cn1ccc(NC(=O)c2nn(C)cc2[N+](=O)[O-])n1	-4	-1.1%	-0.2	1.7	-20	7
COc1ccc(C2c3[nH]c4ccccc4c3C[C@H]3C(=O)N(c4ccccc4C(=O)N4CCC(C(=O)O)CC4)C(=O)N23)cc1 (some centres not stated)	.	-0.4%	.	-3.3	-23	-12
CC(=O)Oc1ccc(Cn2cnc3cc4ccccc4cc32)cc1	11	-1.7%	4.1	7.0	-7	5
CCOC(=O)c1snc(-c2ccc(F)cc2)c1N	-16	0.0%[38.3 µM]	4.0	-0.9	11	11
Cc1ccc(NC(=O)Cn2cc(S(=O)(=O)N3CCN(c4ccccc4F)CC3)c3ccccc3c2=O)cc1F	23	5.6%	-0.1	.	.	.
O=C(/C=C/c1ccc(F)cc1)NC(=S)N1CCOCC1	-4	6.9%	-0.1	0.6	4	0
CC1CCN(C(=O)c2ccccc2NC(=O)Cc2ccccc2)CC1	18	-0.4%	4.3	-12	5	7
N#CCSc1ccccc1NC(=O)CN1C(=O)C2CC=CCC2C1=O (configuration not stated)	-15	-0.9%	4.7	-2.8	-3	8
COc1cc2c(cc1NC(=O)Nc1ccc(F)cc1)oc1ccccc12	2	?	0.0	-3.8	3	-1
O=C(CSc1nnc(SCc2ccc(Cl)cc2)s1)N/N=C/c1c(Cl)cccc1Cl	57	3.4%	2.2	-0.6	-2	-3
Cc1onc(-c2c(F)cccc2Cl)c1C(=O)OCC(=O)N(C)c1ccccc1	-19	0.6%	4.0	-1.9	24	-2
CC(C)(CNC(=O)CC1C(=O)NCCN1Cc1cccc(F)c1)N1CCOCC1 (configuration not stated)	-1	2.3%	0.3	-3.5	-2	1
O=c1oc2ccccc2c(O)c1Cc1cc(Cl)c2cccnc2c1O	23	13%	-1.2	-1.3	?	-9
Cc1ccc(C)c(NC(=O)c2ccc3c(c2)CCN3S(C)(=O)=O)c1	?	4.4%&3.5%	-1.0&-0.8	1.8	1	-2
